RXFP1 antag: qHTS Assay for Antagonists of the Relaxin Receptor RXFP1; Relaxin receptor 1 (Homo sapiens), Q9HBX9; HEK293-RXFP1, relaxin-stimulated cAMP HTRF, 30 min; hits give low values; activity change, negative = inhibition, % at 57.5 µM; 350,000 tested, 0.59% active; AID 1259400, 2018;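 active = activity change of -60% or lower, but not beyond a set lower limit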; note: % is set by controls: 0 for no effect and ±100 for the full control effect
Target sequence (Q9HBX9 whole entry, looked up): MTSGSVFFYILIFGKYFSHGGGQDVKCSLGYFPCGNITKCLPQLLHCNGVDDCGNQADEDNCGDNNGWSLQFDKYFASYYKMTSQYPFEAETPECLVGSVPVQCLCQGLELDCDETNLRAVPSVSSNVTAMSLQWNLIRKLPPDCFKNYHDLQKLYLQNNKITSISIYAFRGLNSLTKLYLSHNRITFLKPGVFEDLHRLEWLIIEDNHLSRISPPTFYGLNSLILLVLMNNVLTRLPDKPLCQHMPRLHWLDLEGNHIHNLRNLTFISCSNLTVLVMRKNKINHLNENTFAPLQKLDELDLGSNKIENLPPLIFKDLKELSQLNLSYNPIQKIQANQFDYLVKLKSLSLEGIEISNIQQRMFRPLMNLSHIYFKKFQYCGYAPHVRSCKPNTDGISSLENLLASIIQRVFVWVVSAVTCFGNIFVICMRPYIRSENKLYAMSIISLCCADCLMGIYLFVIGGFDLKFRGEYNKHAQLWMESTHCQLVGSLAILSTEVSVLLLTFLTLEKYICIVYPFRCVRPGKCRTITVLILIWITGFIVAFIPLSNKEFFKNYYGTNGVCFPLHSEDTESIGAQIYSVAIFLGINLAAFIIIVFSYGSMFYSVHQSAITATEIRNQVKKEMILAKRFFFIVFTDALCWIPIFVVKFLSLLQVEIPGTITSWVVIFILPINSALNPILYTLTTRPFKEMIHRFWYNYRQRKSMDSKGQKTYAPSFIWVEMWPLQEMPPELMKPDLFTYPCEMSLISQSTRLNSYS
TRHR PAM: qHTS for Small Molecule Agonists and Allosteric Enhancers of Human TRH Receptor: Primary Screen for Enhancers. Thyrotropin-releasing hormone receptor (Homo sapiens), P34981. TRHR cells, fluo-8 calcium fluorescence, EC20 TRH enhancement. enhancement, % at 2 µM. 360,000 tested, 0.66% active. AID 493056, 2011; in the data active = enhancement above about 30%; note: 0% is about no effect
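TRHR-expressing cells loaded with fluo-8 calcium dye were read kinetically (ex 480/em 530) during compound addition, then stimulated with an EC20 of TRH (10 nM final). Enhancement of the Gq-mediated intracellular calcium response was scored.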
RXFP1 ag: qHTS Assay for Agonists of the Relaxin Receptor RXFP1; HEK293T-RXFP1 cAMP TR-FRET, 30 min; response scale: percent of porcine relaxin response, buffer zero; Potency, µM (highest dose often 57.5 µM), inactives show at the highest dose activation, usual class: activators; 370,000 tested, 0.3% active; AID 2676, 2010; Relaxin receptor 1 (Homo sapiens), Q9HBX9; active = well fitted activation curve with a large enough effect; note: potency is the fitted concentration of half-maximal effect; % is set by controls: 0 for no effect and ±100 for the full control effect; nearly all actives have a fitted effect of over 60% in size; many of its hits are not listed in these tables
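HEK293T cells stably expressing RXFP1 were pretreated with the PDE4 inhibitor Ro 20174, exposed to compounds for 30 min at 37C, lysed, and cAMP was read by TR-FRET. Data normalized to buffer (basal) and 29 nM porcine relaxin (100%).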
Active calls of the source: *; · = not tested or not shown. Not all compounds are listed; the hit share may differ from the screen's.

SMILES	RXFP1 antag	TRHR PAM	RXFP1 ag
CCN1CCC[C@H]1CNC(=O)c1c(O)c(Cl)cc(Cl)c1OC	-14	-3	1.0%
CC(C)NC[C@H](O)COc1ccc(CC(N)=O)cc1	·	-5	-0.2%
Cc1nc2n(c(=O)c1CCN1CCC(c3noc4cc(F)ccc34)CC1)CCCC2	14	-2	3.8%
CC(C)NCC(O)COc1ccc(CC(N)=O)cc1 (stereo unspecified)	·	-4	-0.4%
CCCNCC(O)COc1ccccc1C(=O)CCc1ccccc1 (stereo unspecified)	-23	-9	0.6%
NCCc1ccc(O)c(O)c1	27	20	2.3%
CN1CCCCC1CCN1c2ccccc2Sc2ccc(S(C)=O)cc21 (stereo unspecified)	-23	-5	3.0%
COc1cc(/C=C/C(=O)/C=C(O)/C=C/c2ccc(O)c(OC)c2)ccc1O	·	-8	0.4%
CCN(CC)CC#CCOC(=O)C(O)(c1ccccc1)C1CCCCC1 (stereo unspecified)	·	-14	0.1%
OCCN1CCN(CCCN2c3ccccc3Sc3ccc(C(F)(F)F)cc32)CC1	-18	15	1.2%
CNCCC(Oc1ccc(C(F)(F)F)cc1)c1ccccc1 (stereo unspecified)	-8	5	1.0%
COc1ccccc1N1CCN(CCN(C(=O)C2CCCCC2)c2ccccn2)CC1	·	2	-0.6%
CN(C)C(=O)C(CCN1CCC(O)(c2ccc(Cl)cc2)CC1)(c1ccccc1)c1ccccc1	14	-9	-1.5%

Full records, quoted from the list. Screens in order: RXFP1 antag, TRHR PAM, RXFP1 ag
CCN1CCC[C@H]1CNC(=O)c1c(O)c(Cl)cc(Cl)c1OC reads -14, -3, 1.0%
CCCNCC(O)COc1ccccc1C(=O)CCc1ccccc1 (stereo unspecified) reads -23, -9, 0.6%
CC(C)NC[C@H](O)COc1ccc(CC(N)=O)cc1 reads ·, -5, -0.2%
CN1CCCCC1CCN1c2ccccc2Sc2ccc(S(C)=O)cc21 (stereo unspecified) reads -23, -5, 3.0%
CNCCC(Oc1ccc(C(F)(F)F)cc1)c1ccccc1 (stereo unspecified) reads -8, 5, 1.0%

In another format: 2 of the compounds above
Values run as follows: RXFP1 antag	TRHR PAM	RXFP1 ag
> CN(C)C(=O)C(CCN1CCC(O)(c2ccc(Cl)cc2)CC1)(c1ccccc1)c1ccccc1
→ 14	-9	-1.5%
> CCCNCC(O)COc1ccccc1C(=O)CCc1ccccc1 (stereo unspecified)
→ -23	-9	0.6%
